miR-21 FLuc: raises the signal of a miR-21 reporter | HeLa miR-21 FLuc reporter, luciferase, 48 h | Potency, µM (doses to about 38.3 µM), without a hit: top-dose reporter change, positive = more light | 340,000 tested, under 10 active; active = well fitted rising curve with a large enough effect; inconclusive = small, poorly fitted or top-dose-only effect; inactive = no such curve, though single readings can be large or run the other way;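 further: % of control where 0% means no effect; miR-21 action dims this reporter so a rising signal means less miR-21 action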
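HeLa miR-21-FLuc reporter line, endogenous miR-21; 2000 cells/well in DMEM/10% FBS; compound titration up to ~40uM final, 48 h, 37 degree Celsius; luciferase detection reagent, 15 min lysis, CCD luminescence.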
GLA inh pH 4.5: inhibitors of human alpha-galactosidase A at pH 4.5 | P06280 | purified enzyme, 4-MU-alpha-Gal fluorescence, pH 4.5 | 230,000 tested, under 10 active | activity change, negative = inhibition, % at 105 µM; inconclusive = small, poorly fitted or top-dose-only inhibition, or a rising curve; inactive = flat fitted curve, though single readings scatter; no compound was filed as active;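 further: 0% = full activity with enzyme and -100% = basal without enzyme; dose as in the result columns while the protocol names 77 µM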
Target sequence (P06280 whole entry, looked up): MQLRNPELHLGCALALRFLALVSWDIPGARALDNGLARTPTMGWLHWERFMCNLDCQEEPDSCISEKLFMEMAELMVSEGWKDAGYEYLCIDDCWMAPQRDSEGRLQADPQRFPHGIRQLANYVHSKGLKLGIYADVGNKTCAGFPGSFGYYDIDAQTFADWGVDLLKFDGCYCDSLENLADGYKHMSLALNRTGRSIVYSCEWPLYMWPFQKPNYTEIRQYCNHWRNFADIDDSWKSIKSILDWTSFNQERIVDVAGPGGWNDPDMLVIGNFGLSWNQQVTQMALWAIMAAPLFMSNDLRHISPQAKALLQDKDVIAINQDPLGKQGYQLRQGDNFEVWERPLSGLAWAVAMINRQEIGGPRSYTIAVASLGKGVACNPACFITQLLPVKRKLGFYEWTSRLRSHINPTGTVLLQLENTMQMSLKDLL
Rango complex inh: inhibitors of Rango-importin beta complex formation; Q14974; Rango CFP/YFP FRET sensor + importin beta, 45 min; Potency, µM (top dose mostly 92.2 µM), for inactives: top-dose inhibition of complex formation; hit rate 0.031% among 340,000; active = rising FRET ratio curve, often small or poorly fitted; inconclusive = mostly compound fluorescence or quenching in the first reads; inactive = flat curves in all reads;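 further: potency means the concentration at half of the fitted maximal effect; 0% = DMSO wells and 100% = buffer wells lacking importin beta; nearly all actives have a fitted effect of over 15% in size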
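Inhibition scored from the CFP 486 nm/YFP 530 nm FRET ratio 45 min after adding 0.125 microM importin beta to 50 nM Rango biosensor preincubated 5 min with compound (room temperature, PBS with DTT, Tween-20, BSA). No-importin wells as positive control.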
Rango dissoc inh: prevents RanGTP from dissociating the Rango-importin beta complex; hit rate 0.071% among 340,000; AID 540253; Potency, µM (doses to about 46.1 µM), for the others: at the highest dose activity change, negative = inhibition; Biochemical FRET Rango-importin beta, RanGTP-induced dissociation; active means falling FRET ratio curve, often poorly fitted, with flat reads before Ran was added; inconclusive means other falling curves, or compound fluorescence or quenching; inactive means flat or rising ratio curve;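 further: potency means the concentration at half of the fitted maximal effect; % of control where 0% means no effect; nearly all actives have a fitted effect of over 45% in size; -100% = wells without RanGTP and RCC1; the record marks most hits as doubtful in a second field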
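FRET read at 45 min, room temperature: inhibitors block the CFP/YFP signal rise when RanGTP (0.6 uM Ran, 2 mM GTP, 0.2 uM RCC1) frees Rango (0.1 uM) from importin beta (0.25 uM). Pre-read after 5 min compound exposure flags interference.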
The depositor's hits bear a star; ? = inconclusive; nt = not tested or not shown; & = joins results of further samples. These rows are one share of the data (hit frequency here may not be typical).

| SMILES | Rango complex inh | miR-21 FLuc | Rango dissoc inh | GLA inh pH 4.5 |
| --- | --- | --- | --- | --- |
| O=C(CCn1c(=O)oc2ccc(Cl)cc21)N1CCN(Cc2ccccc2)CC1 | -3.7% | -2% | -19% | nt |
| O=C(OCc1ccccc1F)c1ccc2c(c1)-c1ccccc1C2=O | 1.4% | -13% | 2% | -9 |
| CCC1CN(C(=O)N2CCC(C(=O)NCc3ccc(OC)cc3OC)CC2)c2ccccc2O1 (stereo not given) | -2.0% | 0% | 25% | nt |
| COc1cccc(C(=O)NCC(=O)N/N=C/c2cn[nH]c2-c2ccccc2)c1 | -0.3% | 0% | 29% | 0 |
| COc1cc(Cn2c(=O)oc3ccc(C)cc32)ccc1OC(C)C | -1.0% | -8% | -4% | -18 |
| COc1ccc(NC(=O)Nc2cccc3c2O[C@H](CN(C)C(=O)Nc2ccccc2)[C@@H](C)CN([C@H](C)CO)C3=O)cc1 | 2.7% | nt | 2% | nt |
| CN(C)c1cc(Cl)c2nonc2c1N | -1.7% | -8% | 6% | 2 |
| O=C(/C=C/c1ccco1)N1CCN(c2ncccn2)CC1 | 0.6% | -43% | 0% | -2 |
| CC(C)(C)c1nnc(NC(=O)c2ccc(Cl)nc2)s1 | -4.2% | -14% | -2% | 2 |
| O=C(CC1SC(N2CCOCC2)=NC1=O)Nc1cccc(C(F)(F)F)c1 (stereo not given) | 0.2% | nt | 0% | nt |
| COC(CNC(=O)[C@H](Cc1ccccc1)N1Cc2ccccc2C1=O)OC | -2.3% | 0% | 8% | nt |
| NC(=O)C1CCN(C(=O)C2c3ccccc3C(=O)N3CCc4ccccc4C23)CC1 (stereo not given) | ? | -2% | -20% | -4 |
| CC(C)CNC(=O)c1ccccc1NC(=O)/C=C/c1cccc([N+](=O)[O-])c1 | 5.9% | -10% | 11% | 2 |
| COc1ccc(Nc2cccc3ccccc23)cc1 | -1.6% | nt | 14% | nt |
| O=C(O)CCCn1c(O)c(C=C2N=c3ccccc3=N2)sc1=S | -4.3% | -5% | -5% | -3 |
| COCCNC(=O)C(c1ccc(O)cc1)N(Cc1ccco1)C(=O)CCC(=O)Nc1nccs1 (stereo not given) | 0.1% | 1% | -7% | -2 |
| CCN1C(=O)c2cccc3c(S(=O)(=O)Nc4ccccc4OC)ccc1c23 | ? | -8% | ? | -9 |
| O=C(Nc1cc2c3c(c1)C1CCCC1CN3CC1CCCC21)c1ccc([N+](=O)[O-])cc1 (stereo not given) | -0.2% | -12% | -7% | 2 |
| O=C(Nc1ccc(NC(=O)c2ccccc2)nc1)c1ccncc1 | -0.5% | -21% | -6% | -7 |
| O=C(NC(=S)Nc1ccc(N2CCN(C(=O)c3ccccc3)CC2)cc1)c1cccs1 | 1.5% | 28% | 6% | -3 |
| CCOc1ccc(C2C(C(=O)c3ccc(C)o3)=C(O)C(=O)N2Cc2cccnc2)cc1 (stereo not given) | -1.9% | -3% | 2% | nt |
| CCN1C(=O)C(CC(=O)Nc2ccc(Br)cc2)N(CCCc2ccccc2)C1=S (stereo not given) | 2.4% | ? | -3% | -6 |
| Cc1cc(C)cc(OCC(=O)OCC(=O)NC2CC2)c1 | 2.6% | nt | 4% | nt |
| COC/C=C/C1=CC2=CC(=O)C(C)(OC(=O)c3cnc4ccccc4n3)C(=O)C2=CN1c1ccccc1 (stereo not given) | -2.6% | -24% | -18% | 10&-6 |
| COc1ccc(C2c3c(oc4ccc(Cl)cc4c3=O)C(=O)N2CCN2CCOCC2)cc1 (stereo not given) | -0.2% | -28% | -12% | -2 |
| CCCCCCSc1ccc(-c2nc3cnccn3c2NCCCC)cc1 | ? | nt | ? | nt |
| COc1cccc(CN2C(=O)c3ccccc3S2(=O)=O)c1 | 1.3% | -8% | 7% | nt |
| COc1cc(SC)ccc1C(=O)NCCc1c[nH]c2ccccc12 | 0.9% | -32% | ? | nt |
| COC1=C/C(=C/c2c(N)n3cc(C)sc3nc2=O)C=CC1=O | ? | -11% | ? | -2 |
| CC1CCN(C(=O)c2[nH]cnc2C(=O)NCc2ccccc2)CC1 | -0.1% | nt | 0% | nt |
| CC(C)Cn1c(N)c(C(=O)COC(=O)c2cc(-c3ccccc3)nc3ccccc23)c(=O)n(C)c1=O | -4.3% | 0% | 0% | -4&-12 |
| Cc1ccccc1C(CC(=O)c1cccs1)C(C#N)C#N (stereo not given) | -5.7% | 11% | -19% | -3 |
| CC(C)[C@H](NC(=O)C1CCC(CNC(=O)[C@@H]2CCCN2C(=O)OC(C)(C)C)CC1)C(=O)O (stereo not given in full) | -0.6% | 1% | -2% | nt |
| CCn1c(SCc2ccccc2)nc2c(c1=O)SCC2 | -6.3% | -2% | 1% | -18 |
| Cc1c(NC(=O)c2cc(S(=O)(=O)N3CCCCC3)ccc2Cl)c(=O)n(-c2ccccc2)n1C | 1.0% | nt | 2% | nt |
| N#Cc1ccccc1NC(=O)COC(=O)C1CCN(C(=O)c2ccc(Cl)cc2)CC1 | -3.4% | nt | -10% | nt |
| CCC(C)NCCOCCOc1ccccc1-c1ccccc1 (stereo not given) | -4.5% | 0% | 7% | 4 |
| CCC(Cc1ccccc1)NC(=O)C1CCN(S(=O)(=O)c2ccc3c(c2)CC(C)N3C(C)=O)CC1 (stereo not given) | -4.7% | 8% | 3% | nt |
| Cc1nnc(-c2cnn(C)c2N)n1Cc1ccccc1F | 1.7% | 2% | 14% | 2 |
| CC1(C)CC2CC(C)(CN2C(=S)Nc2ccccc2F)C1 (stereo not given) | -0.4% | -11% | 0% | 6 |

3 entries already listed, ordered by the value under miR-21 FLuc, smallest number first.
canonical_smiles | miR-21 FLuc
CCC(C)NCCOCCOc1ccccc1-c1ccccc1 (stereo not given) | 0%
CC(C)[C@H](NC(=O)C1CCC(CNC(=O)[C@@H]2CCCN2C(=O)OC(C)(C)C)CC1)C(=O)O (stereo not given in full) | 1%
Cc1nnc(-c2cnn(C)c2N)n1Cc1ccccc1F | 2%

(continued)
| SMILES | Rango complex inh | miR-21 FLuc | Rango dissoc inh | GLA inh pH 4.5 |
| --- | --- | --- | --- | --- |
| C[C@@]12CCC=C[C@H]1[C@H](c1ccc3ccccc3c1Br)N(Cc1ccccc1)C2=O | 0.2% | 10% | -7% | 1 |
| CCN(CC)c1ccc(CNc2ccc3c(c2)ncn3CC)cc1 | -0.6% | 8% | 0% | nt |
| Cc1cc2cc(CNC(=O)Nc3ccccc3)ccc2n1C | -0.4% | -32% | ? | -4 |
| CSc1nc(-c2ccccc2)nc(N2CCOCC2)c1C(C)=O | -1.1% | -2% | 1% | -2 |
| Cc1ccc(C)c(S(=O)(=O)N2CCN(C(=O)CSc3ccccc3F)CC2)c1 | -1.5% | -5% | 10% | nt |
| O=C(O)c1ccc(-c2noc(-c3cccc(C(F)(F)F)c3)n2)cc1 | 0.3% | nt | -5% | nt |
| CC(CN1CCN(C)CC1)OC(=O)c1ccccc1 (stereo not given) | -4.8% | -1% | 7% | -17 |
| CCOc1ccc(CNC(=O)CCn2c(=O)oc3ccccc32)cc1OC | -3.4% | -4% | 1% | 4 |
| COCCn1cnnc1SCC(=O)Nc1cccc(S(=O)(=O)N(C)c2ccccc2)c1 | 4.3% | -2% | -11% | 3 |
| CC1=CC(=O)CC(C)(C)C1(O)/C=C/C(C)=C/C(=O)O (stereo not given) | 0.8% | -1% | -4% | -17&3 |
| O=C1c2ccccc2C(=O)N1C1(C(=O)NC2(C(=O)O)CCCC2)CCCC1 | 0.8% | nt | -3% | nt |
| S=C(c1ccc(Cl)cc1)N1CCN(Cc2ccccc2)CC1 | -4.8% | 4% | 14% | -1 |
| CC(C)C[C@H](NC(=O)OC(C)(C)C)c1nnc(SCC(=O)Nc2ccc(Br)cc2)o1 | 0.1% | 6% | 3% | -23 |
| COc1ccc(C2Nc3ccccc3C(=O)N2Cc2ccco2)cc1COc1ccc([N+](=O)[O-])cc1 (stereo not given) | -2.4% | 12% | 1% | 3 |
| C=CCN1C(=O)c2ccccc2C1(O)Cc1ccccc1 (stereo not given) | -0.5% | -2% | -3% | nt |
| O=C(c1cc(-c2ccccc2)nc2ccccc12)N1CCc2ccccc2C1 | 0.6% | 5% | -8% | -6 |
| Cc1c(CN(C)C(=O)/C=C/c2ccc([N+](=O)[O-])cc2)cnn1C | -3.5% | -3% | -2% | 0 |
| CCOc1ccc(N(CC(=O)NC(C)CC)S(=O)(=O)c2c(C)noc2C)cc1 (stereo not given) | nt | -2% | nt | 6 |
| O=C(CSc1nc(N2CCCCC2)nc(N2CCCCC2)n1)Nc1nccs1 | 0.6% | -1% | 0% | -4 |
| Cc1cc(C)c(NC(=S)NCCO)c(C)c1 | 0.5% | -10% | 7% | -4 |
| COc1cc2oc3ccccc3c2cc1N(CC(=O)N(C)C)S(=O)(=O)c1ccc(C)cc1 | 3.2% | -8% | ? | -6 |
| Cc1c[n+](C)ccc1CC1C([N+](=O)[O-])=C[N-]c2ncnn21 (stereo not given) | 0.1% | -1% | 1% | -1 |
| Cc1cccc(NC(=O)c2ccc(NC(=O)CC3SC(N4CCCC4)=NC3=O)cc2)n1 (stereo not given) | 7.1% | nt | 2% | nt |
| Cc1c(C(=O)OCCOc2ccccc2)[nH]c2c1C(=O)CCC2 | 0.3% | 19% | -9% | -7 |
| COc1cc(Cl)cc(C2NC(=O)NC(C)=C2C(=O)NCc2ccccc2)c1O (stereo not given) | 4.1% | 1% | 13% | 0 |
| O=C(NCC1CCCO1)c1cc(S(=O)(=O)Nc2ccc(Br)cc2)ccc1Cl (stereo not given) | -1.7% | -2% | -4% | 2 |
| C/C(N)=C(/C#N)C(=O)CSc1nc2ccccc2c(=O)n1CCCOC(C)C | -0.2% | -10% | 9% | -9 |
| C=CCN1C(=O)/C(=C\c2ccc(Oc3nc(N4CCOCC4)nc(N4CCOCC4)n3)c(OC)c2)SC1=S | 2.8% | -1% | -10% | -2 |
| COc1ccc(NC(=O)CSc2n[nH]c(=O)n2C2CC2)cc1Cl | 2.6% | nt | -5% | nt |
| COc1ccc(-c2csc(-c3cccnc3)n2)cc1C | 3.1% | -72% | -8% | nt |
| Cc1ccc(OCCSc2nc3ccccc3n2CC(=O)O)c(C(C)C)c1 | 4.2% | -5% | 13% | nt |
| Cc1ccc(SCc2cc(=O)[nH]c(SCC(=O)Nc3cc(Cl)ccc3Cl)n2)cc1 | -4.0% | 0% | 1% | -9 |
| CC(OC(=O)CSc1ccc(F)cc1)C(=O)NC1(C#N)CCCCC1 (stereo not given) | -0.9% | -5% | 7% | nt |
| O=C(OCC(=O)N1CCc2ccccc21)c1c2c(nc3ccccc13)CCCC2 | -0.7% | 21% | -1% | 5 |
| COc1ccc(/C=N/NC(=O)CN2CCCc3ccccc32)c(OC)c1 | 2.9% | -3% | 6% | -7 |
| CCOc1cccc(C(=O)Nc2nnc(-c3cccs3)s2)c1 | -3.0% | -55% | 21% | 6 |
| O=C(Nc1ccc(Nc2ccccc2)cc1)c1ccc(Br)o1 | -3.2% | -29% | 7% | 0 |
| CCC(C)Sc1cc(-c2nc3ccc(Cl)cn3c2NC2CCCCC2)ccc1OC (stereo not given) | ? | nt | ? | nt |
| CCc1ccccc1NC(=O)CSc1nnc(Cn2cnc3ccccc32)o1 | 0.6% | -3% | 17% | -2 |
| COc1ccc(CC(=O)Nc2c3c(nn2C(C)(C)C)CS(=O)(=O)C3)cc1OC | -1.4% | 2% | 0% | nt |
| CC1(C)CC(=O)C2=C(C1)OC(N)=C(C#N)C2c1cccs1 (stereo not given) | -0.4% | 2% | 1% | 7 |
| CC(=O)c1ccc(Sc2nnnn2-c2ccccc2)c([N+](=O)[O-])c1 | -4.0% | 13% | -4% | -7 |
| CC(=O)N1CCN(C(=O)COC(=O)COc2c(C)cc(C)cc2C)CC1 | 3.0% | nt | 4% | nt |
| COc1cccc(CNS(=O)(=O)c2ccc3c(c2)CC(C)N3C(=O)C2CC2)c1 (stereo not given) | -3.6% | 8% | 1% | nt |
| Cc1ccc(CS(=O)Cc2ccc(C(=O)NCc3ccccc3Br)o2)cc1 (stereo not given) | -2.7% | 1% | -12% | nt |
| Cc1ccccc1-c1nnc(SCC(=O)NC2CCCCC2)o1 | -1.3% | -7% | 7% | -1 |
| Cc1ccccc1S(=O)(=O)Nc1ncnc2scc(-c3ccccc3)c12 | -2.2% | -1% | -6% | -1 |
| Cc1ccc(C2CC(C(F)(F)F)n3nc(C(=O)Nc4c(C)n(C)n(-c5ccccc5)c4=O)cc3N2)cc1 (stereo not given) | ? | 1% | -22% | 25 |
